# Tg IFNy HTS: T. gondii growth inhibition with IFN-gamma, primary screen, cell-based | Toxoplasma gondii growth in IFN-gamma-treated host cells; active compounds read low; reference of the scale not given here | activity change, negative = inhibition, %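 (about 20 µM by stock and volumes)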 | 69,000 tested, 3.8% active;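 active = below -70%; inconclusive = fit judged invalid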;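 note: host cells are HeLa cells infected with Toxoplasma gondii; parasite growth read as luciferase light; one replicate is shown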
# * hit, by the source's call; i = inactive; ? = inconclusive. This is a subset (hit frequency here may not be typical).
SMILES,Tg IFNy HTS
Cc1nc2c([nH]1)CCN(C(=O)c1ccc(NC(=O)c3ccccc3-c3ccccc3)cc1)c1ccccc1-2,2
O=C(Cn1ncc2c(N3CCCC3)ncnc21)NCCCc1ccccc1,-2
COCCN1C(=O)CCc2cc(NC(=O)c3ccc(Cl)cc3)ccc21,0
CCCNS(=O)(=O)c1ccc(CCC(=O)N2CCCC2)cc1,-8
COc1cccc(CNC(=O)CN2C(=O)CCc3cc(S(=O)(=O)N4CCOCC4)ccc32)c1,37
CCN1c2ccccc2C(=O)NC12CCN(C(=O)Nc1cc(Cl)ccc1OC)CC2,-66
COCc1cncc2c1CCN(S(=O)(=O)c1cccc(C)c1)C2,9
Fc1cccnc1O[C@@H]1CC[C@@H]2[C@@H]1OCCN2c1ncccn1,-11
O=C(c1ccc(Cl)cc1Cl)N1CCOCC1,2
Cc1cccc(C(C(=O)NCc2nc(-c3cccnc3)no2)N(C)C)c1 (stereo not given),2
Cc1noc(C)c1S(=O)(=O)Nc1ccc2c(c1)C(=O)N([C@@H](C)CO)C[C@@H](C)[C@@H](CN(C)C(=O)Nc1cccc3ccccc13)OCCCC[C@H](C)O2,151
COc1cc(C(=O)N2CCc3c(nc[nH]c3=O)C2)c2ccccc2n1,1
CCOc1ccc(-c2nnc(-c3ccccc3)o2)cc1,287
COc1ccccc1C1(NCc2ccccc2OCC2CCCO2)CCCC1 (stereo not given),-45
CN1CCCN(C(c2ccccc2)c2ccc(Cl)cc2)CC1 (stereo not given),?
CO[C@H]1CCN(C(=O)c2ccccn2)[C@H]2CN(Cc3ccncc3)C[C@@H]12,11
COc1ccc(C)cc1NC(=O)CN1C(=O)CCc2cc(S(=O)(=O)N3CCCCC3C)ccc21 (stereo not given),-2
CC(C)Nc1cc(-c2cccc3cccnc23)ncn1,6
O=C(c1cccnc1)N1N=C(C2CC2)CC1(O)C(F)(F)F (stereo not given),25
O=C(CCC1N=C2c3ccccc3N=C(SCc3ccc(F)cc3)N2C1=O)NCc1ccco1 (stereo not given),11
COc1ccc2c(c1)C1CC(C)(NC(=O)C1C(=O)c1ccccc1)O2 (stereo not given),15
O=C(N[C@@H]1CC[C@@H](CCn2cc(-c3ccccc3F)nn2)O[C@H]1CO)c1ccc2c(c1)OCO2,45
Cc1oc(-c2ccc(NC(=O)c3ccsc3)cc2)nc1Cn1cccn1,120
c1csc(-c2nc(N3CCOCC3)nc3c2CCCC3)c1,97
CCCCCC(C)N (stereo not given),14
# The list continues:
SMILES,Tg IFNy HTS
Cc1noc(C)c1NC(=O)Nc1ccc2c(c1)C(=O)N([C@H](C)CO)C[C@@H](C)[C@H](CN(C)S(=O)(=O)c1cccs1)OCCCC[C@H](C)O2,442
COc1ccc(NC(=O)CN2CCC3(CC2)N=C(c2ccc(C(C)(C)C)cc2)C(=O)N3)cc1,77
CCOC(=O)C1CCN(C(=O)c2sc(-c3cn(C(C)C)c4ncccc34)nc2C)CC1,-51
CC(C)(Oc1cccc2ccccc12)C(=O)N1CCOC(C(F)(F)F)C1 (stereo not given),5
Cc1ccccc1C(NS(=O)(=O)NCc1ccccc1)c1ccncc1 (stereo not given),-59
CC(C)n1ccc(-c2cc(C(=O)N3CCC(C(N)=O)CC3)c3ccccn23)n1,9
CCCCN(CC)CCCNC(=O)C1=C(C)C(=O)OC12CCN(S(=O)(=O)CC)CC2,-6
CNC(=O)C1(C)CCCN(CC(=O)Nc2nccs2)C1 (stereo not given),0
Cc1cc(CN2CCN(c3cccc(C(C)C)n3)CC2)sc1C,-16
Cc1ccc2cccnc2c1NC(=O)Cc1c(C)nc2[nH]nc(C)n2c1=O,2
Cc1noc(C)c1CN(C)C(=O)c1c(O)cccc1O,2
O=C(COc1ccc(C2=NCCS2)cc1)Nc1ccc(Cl)cc1,3
CN(Cc1ccoc1)C(=O)c1cn(CC2CCCCC2)nn1,17
C[C@H]1CN([C@@H](C)CO)C(=O)CCCn2nncc2CO[C@@H]1CN(C)C(=O)c1ccc(N2CCN(C)CC2)cc1,177
O=C(NCc1ccc(F)cc1F)c1c(O)c2cccnc2n(-c2ccccc2)c1=O,74
COc1ccc(-c2nc(C)c(CCNC(=O)c3cccc(C)c3)s2)cc1,i
CN1CCC(Cc2noc(CCC(=O)c3ccccc3)n2)CC1,0
CCOc1ccc(-c2nc(Cn3nnc(C(=O)Nc4cc(C)ccc4C)c3C)c(C)o2)cc1,34
CC(=O)Nc1nonc1-c1ccccc1,0
O=C(c1ccc2ncnc(N3CCCC3)c2c1)N1CCCC1,-38
O=C(O)CC1(CC(=O)Nc2ccc(OC(F)(F)F)cc2)CCCC1,36
Cc1ccc(C(=O)N2CCC3(CC2)Nc2cccnc2NC3=NC2CCCC2)cc1F,39
Clc1ccc(CSc2nsc(SCc3ccc(Cl)cc3)n2)cc1,-58
COc1ccc(-c2nc3c(s2)CN(S(=O)(=O)c2ccccc2Cl)CC3)cc1,-86*
C[C@H]1CN([C@@H](C)CO)C(=O)CCCn2cc(nn2)CO[C@@H]1CN(C)C(=O)Nc1ccc2c(c1)OCO2,i

# Continued, starting with the last five of the part before.
SMILES,Tg IFNy HTS
O=C(O)CC1(CC(=O)Nc2ccc(OC(F)(F)F)cc2)CCCC1,36
Cc1ccc(C(=O)N2CCC3(CC2)Nc2cccnc2NC3=NC2CCCC2)cc1F,39
Clc1ccc(CSc2nsc(SCc3ccc(Cl)cc3)n2)cc1,-58
COc1ccc(-c2nc3c(s2)CN(S(=O)(=O)c2ccccc2Cl)CC3)cc1,-86*
C[C@H]1CN([C@@H](C)CO)C(=O)CCCn2cc(nn2)CO[C@@H]1CN(C)C(=O)Nc1ccc2c(c1)OCO2,i
Cc1ccccc1C1CCCN1C(=O)c1ccc(OCC(N)=O)cc1 (stereo not given),7
COc1cccc(NC(=O)N[C@H]2CC[C@H](CC(=O)N3CCN(C)CC3)O[C@@H]2CO)c1,26
CCn1nnc2c1C(COC)CN(C(=O)COc1ccccc1)C2 (stereo not given),13
Cc1cccc(S(=O)(=O)N2CC[C@H]3[C@H](CO)Nc4ccc(-c5ccccc5F)cc4[C@H]32)c1,19
COc1ccc(C(=O)NCc2cccnc2)cc1,1
Cn1ccn2ncc(-c3nc(C4(c5ccc(F)cc5)CCOC4)no3)c12 (stereo not given),-10
CC(c1ccccc1)c1nc2cnccn2c1NC(C)(C)C (stereo not given),-7
O=C1NCC2(CCN(CC3(O)CCCN(CCc4ccccc4)C3=O)CC2)O1 (stereo not given),-5
Cc1ccc(C)c(-c2noc(-c3c(O)c4ccc(F)cc4[nH]c3=O)n2)c1,67
COc1cc(CNC2CCCc3ccccc32)cc(OC)c1OC (stereo not given),-45
COc1cccc(CC(=O)N2CCC(N(C)C)CC2C(=O)O)c1 (stereo not given),-4
CCn1ncc(C2=NOC(C(=O)Nc3cccc(-c4nnco4)c3)C2)c1C (stereo not given),-13
Cn1nc(C2CCN(c3cnccn3)CC2)n(-c2ccccc2)c1=O,2
COc1ccc(-c2cc3c(=O)n(Cc4nc(-c5ccc(OC)cc5OC)oc4C)ccn3n2)cc1,43
O=C(C[C@H]1C=C[C@H](NC(=O)C2CCOCC2)[C@H](CO)O1)NCCc1cscn1,13
COC(=O)C(C)NC(=O)N1CCC2(CC1)Nc1cc(F)ccc1-n1cccc12 (stereo not given),107
O=C(NC1CCCCC1)C1CC(=O)N(CCc2c[nH]c3ccc(Cl)cc23)C1 (stereo not given),-23
CN1CCC2(CCOCC2COc2cccnc2)CC1 (stereo not given),-25
CCCN1C(=O)CCc2cc(NC(=O)c3ccc(C)s3)ccc21,?
CN1C(=O)C(F)=C[C@]2(C)[C@H]3CC[C@]4(C)[C@@H](C(=O)NCc5nc6ncccc6[nH]5)CC[C@H]4[C@@H]3CC[C@@H]12,-15
Cc1cc(S(=O)(=O)NCCc2csc(-c3cccc(F)c3)n2)ccc1F,-14
COc1cc(Cl)c(NC(=O)c2nc(Nc3ccc(C)cc3)c3ccccc3n2)c(OC)c1,27
Cc1sc2ncnc(SCC(=O)Nc3nc4c(s3)CC(C)(C)CC4=O)c2c1C,0
Cc1ccc(-c2nc(C(=O)Nc3cc(C)on3)c3n2CCCCC3)cc1,-110*
O=C(Nc1ccc(F)cc1F)c1c(O)c2cccnc2n(-c2ccc(F)cc2)c1=O,-2
# More results follow:
SMILES,Tg IFNy HTS
COc1ccc(OCC(=O)Nc2cccc(-c3nnc4c5ccccc5c(C)nn34)c2)cc1,-76*
Fc1ccc(Oc2cc(C(F)(F)F)nc3c(Br)cccc23)cc1,-30
CN1CCCC1(Cc1ccccc1)C(=O)O (stereo not given),-55
COCCN1C[C@@H](NC(=O)c2nccn2C)[C@@H]2OCCC[C@@H]21,i
CCOC(=O)C(Cc1c[nH]c2ccccc12)NC(=O)CN1C(=O)c2ccccc2C1=O (stereo not given),17
CCc1cnc(-c2cc3ccccc3o2)nc1,196
COc1ccc(OCC(=O)Nn2cnnc2)cc1,15
C=CCc1cc(CN(C)CC2CCN(C)C2)cc(OC)c1O (stereo not given),433
CC1(C)CC2(CCCN(C(=S)Nc3ccccc3)C2)CCO1 (stereo not given),-44
CCOc1ccc(N2CC(NC(=O)C(=O)c3c[nH]c4ccccc34)CC2=O)cc1 (stereo not given),0
c1cnc2c(-c3nccn3CCCN3CCOCC3)cccc2c1,7
COc1cc(-c2ccc(C(F)(F)F)cn2)cc2c1OCCN(C(=O)CNC(C)=O)C2,-51
Cn1cc(CC(=O)N2CCCC3(CC2)CNC(=O)O3)c2ccccc21 (stereo not given),4
COc1ccc(-c2[nH]ncc2CN(C)C(C)c2ccon2)c(OC)c1 (stereo not given),17
Cn1c(C(=O)N2CCCC2)nc2c1CCN(S(C)(=O)=O)C2,212
Cc1c(CN2CCNC(=O)C(Cc3ccc(-c4ccccc4)cc3)C2)c(=O)n(C)c(=O)n1C (stereo not given),-3
Cc1cc(C(=O)NCc2noc(C)n2)c2cnn(C(C)C)c2n1,-3
C=CCSc1n[nH]c(=O)n1C1CCCCC1,-2
O=C(NCCN1CCNC1=O)c1cn(Cc2ccccc2C(F)(F)F)nn1,-7
CCNC(=O)C[C@H]1CC[C@H]2[C@@H](COC[C@@H](O)CN2C(=O)c2ccccn2)O1,-7
CN(CCn1ccnc1)c1ccc(-c2nc(-c3cccc(Cl)c3)no2)cn1,141
O=S(=O)(C1CC1)N1CCCn2nnc(COCCO)c2C1,-2
COc1c(C)cnc(Cn2nc3n(C)c4ccccc4n3c2=O)c1C,13
COc1ccc(CN(Cc2cnc(OC)nc2)C2CC(C)(C)NC(C)(C)C2)cc1,-10
COc1ccc2c3c(n(C)c2c1)[C@@H](CO)N(Cc1ccc(F)cc1)CC31CCN(C)CC1,419

# Fetched one by one from above:
SMILES,Tg IFNy HTS
CN(CCn1ccnc1)c1ccc(-c2nc(-c3cccc(Cl)c3)no2)cn1,141
COc1ccc2c3c(n(C)c2c1)[C@@H](CO)N(Cc1ccc(F)cc1)CC31CCN(C)CC1,419

# More results
SMILES,Tg IFNy HTS
COc1ccc(CCC(=O)NCCc2csc(-c3cccc(C)c3)n2)cc1,i
CCOc1ccc(C(=O)N2CCn3nc(C(=O)N4CCOCC4)cc3C2)o1,-2
CCS(=O)(=O)N1[C@H](CO)[C@@H](c2ccccc2C2=CCCCC2)[C@@H]1C#N,-41
CCCCn1c(=O)c2c(nc3n2CCCN3CCc2ccccc2)n(C)c1=O,-97*
Cc1ccc(CN2CCC3(CC2)CC(N(C)Cc2cccnc2)CO3)s1 (stereo not given),-3
Cc1ccsc1[C@@H]1CCN(Cc2ccc(-c3ccn[nH]3)o2)C[C@H]1O,18
Cc1noc(CN(C)C(=O)C2CC(=O)N(CC(C)C)C2)n1 (stereo not given),2
OC[C@@H]1[C@@H](c2ccccc2)C2(CN(Cc3ccccn3)C2)N1CCC(F)(F)F,-23
O=C(CCC1Nc2c3ccccc3nc(=S)n2C1=O)NCc1ccc(F)cc1 (stereo not given),12
CC(NC(=O)c1cccc(-n2cccn2)c1)c1nnc2n1CCNCC2 (stereo not given),-3
CC(C)n1nc(CNc2ncccn2)c2c1CN(C(=O)N(C)C)CC2,-76*
CCCc1ccc(-c2nccn2Cc2cccnc2)o1,-6
C[C@H](CO)N1C[C@H](C)[C@H](CN(C)CC2CC2)OCCCC[C@H](C)Oc2ccc(NC(=O)c3ccccc3)cc2C1=O,-83*
Cc1oc(-c2cccc(C(F)(F)F)c2)nc1Cn1cc(CCO)cn1,13
COCCN1C2(CCN(CC3CC3)C2)c2ccccc2S1(=O)=O (stereo not given),-53
Cc1ccc(S(=O)(=O)NC2c3cccc4cccc(c34)C2Sc2n[nH]c(N)n2)cc1 (stereo not given),-11
CC1CCCN(C(=O)CCNc2c(-c3ccc(F)cc3)nc3cnccn23)C1 (stereo not given),229
Cc1ccc(-c2nc(CN3CCN(C(=O)NC(C)C)CC3)c(C)o2)cc1,2
CC(=O)N1CC2(CC(=O)OC(C)C)CN(C(C)=O)CC(CC(=O)OC(C)C)(C1)C2=O,6
COc1ccccc1-c1noc(-c2nnn(Cc3nc(-c4cccc(Cl)c4)oc3C)c2C)n1,8
CC(=O)N1CCC(C(=O)N(C)C(C)Cc2ccccn2)CC1 (stereo not given),6
O=C(O)CCn1nnnc1-c1cccs1,-37
Cc1ccc(-c2ccc([C@@H]3[C@@H](CO)N4C(=O)CN(C(=O)NC(C)C)C[C@H]34)cc2)cc1,-6

# Part of the list above, with each value named.
> O=C(O)CCn1nnnc1-c1cccs1
  Tg IFNy HTS: -37
> OC[C@@H]1[C@@H](c2ccccc2)C2(CN(Cc3ccccn3)C2)N1CCC(F)(F)F
  Tg IFNy HTS: -23

# Source: PubChem BioAssay
